High-throughput results as filed in PubChem BioAssay.
KCNQ2 pot = potentiators of rat KCNQ2 potassium channel; O88943; CHO-K1 KCNQ2, FluxOR thallium flux fluorescence; stronger effect = higher value; B-score at 10 µM; hit rate 0.54% among 310,000;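 active = fluorescence ratio B-score at least 3 SD of library B-scores, with initial fluorescence B-score within 3 SD, cut at about 5.3 in these data; same plate scores as AID 2156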;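 note: B-score of peak minus minimum over baseline fluorescence ratio after K+ and Tl+ stimulus; positive B-score means potentiation of KCNQ2 with more thallium influx and brighter signal; only the inactives scoring about 0 or higher are listed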
Target sequence (O88943 whole entry, looked up): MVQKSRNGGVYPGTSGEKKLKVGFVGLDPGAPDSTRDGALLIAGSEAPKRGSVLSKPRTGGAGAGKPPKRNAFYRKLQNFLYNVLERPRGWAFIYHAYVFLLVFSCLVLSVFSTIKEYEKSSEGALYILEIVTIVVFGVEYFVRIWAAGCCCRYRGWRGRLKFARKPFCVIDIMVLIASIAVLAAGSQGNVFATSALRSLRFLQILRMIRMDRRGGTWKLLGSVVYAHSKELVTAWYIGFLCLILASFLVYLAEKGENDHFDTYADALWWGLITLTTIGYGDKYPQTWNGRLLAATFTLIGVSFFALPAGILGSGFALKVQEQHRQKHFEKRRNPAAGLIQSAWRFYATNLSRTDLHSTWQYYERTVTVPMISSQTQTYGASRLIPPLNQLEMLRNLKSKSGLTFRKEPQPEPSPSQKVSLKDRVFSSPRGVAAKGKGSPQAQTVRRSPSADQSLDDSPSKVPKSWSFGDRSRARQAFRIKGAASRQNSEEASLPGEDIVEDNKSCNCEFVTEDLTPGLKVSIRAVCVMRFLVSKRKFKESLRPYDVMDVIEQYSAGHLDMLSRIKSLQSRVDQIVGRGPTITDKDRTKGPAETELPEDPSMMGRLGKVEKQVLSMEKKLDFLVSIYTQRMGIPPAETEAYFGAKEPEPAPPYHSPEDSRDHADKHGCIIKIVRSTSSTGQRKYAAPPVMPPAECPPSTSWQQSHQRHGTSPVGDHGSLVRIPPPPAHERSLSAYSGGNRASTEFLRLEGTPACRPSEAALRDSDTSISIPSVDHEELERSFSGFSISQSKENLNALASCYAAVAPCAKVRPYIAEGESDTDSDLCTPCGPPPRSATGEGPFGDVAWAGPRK
KCNQ2 pot baseline = second read-out of KCNQ2 pot, no call of its own (marks repeat the call); B-score; compound at 10 µM; measured here: initial fluorescence intensity artifact check;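 brightness before thallium and not channel activity; 0 = typical well and far values either way flag optical interference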
Numbers without * were called inactive. Some of the compounds tested; the hit share may differ from the screen's.

KCNQ2 pot	KCNQ2 pot baseline	compound
0.51	1.2	COc1cc(OC)cc(C(=O)Nc2ccccc2-c2nnn(CC(=O)Nc3cc(C)on3)n2)c1
0.01	-0.32	COC(=O)c1cc(NS(=O)(=O)c2ccc(N3CCCCCC3)c([N+](=O)[O-])c2)cc(C(=O)OC)c1
0.74	0.82	O=C(CN1C(=O)NC2(CCCCC2)C1=O)Nc1ccc(N2CCOCC2)cc1
0.21	0.04	CCCCNC(=S)N(CCO)Cc1cc2cc3c(cc2[nH]c1=O)OCCO3
2.1	0.84	CC(C)c1ccc(C(=O)NCCCc2ccccc2)cc1
0.39	0.48	O=C(NC1CCCC1)C(=O)c1c[nH]c2ccccc12
0.31	-1.1	COc1ccc2nc(N)sc2c1
1.3	0.01	COCCNc1oc(/C=C/c2ccccc2OC)nc1S(=O)(=O)c1ccccc1
0.92	0.03	CC(C)CN1C(=O)NC2(CCCc3ccccc32)C1=O (stereo not given)
1.6	1.4	CCOc1cc2nc3c4ccccc4n(C)c3nc2cc1OCC
0.95	-1.6	CCNC(=S)Nc1ccc(Oc2ccccc2)cc1
0.4	2	CCCN1CCC(NC(=O)c2cccc(Oc3ccccc3)c2)CC1

A different layout for part of the listing above.
molecule: O=C(NC1CCCC1)C(=O)c1c[nH]c2ccccc12
  KCNQ2 pot = 0.39	KCNQ2 pot baseline = 0.48
molecule: COc1ccc2nc(N)sc2c1
  KCNQ2 pot = 0.31	KCNQ2 pot baseline = -1.1

The listing continues.
KCNQ2 pot	KCNQ2 pot baseline	compound
0.98	0.4	O=C1C=CC(=O)N1c1ccc(N2CCCCC2)cc1
0.3	3.1	COc1ccc(-c2nn(-c3ccccc3C)cc2CNCc2cccnc2)cc1F
0.39	-0.92	Cc1cc2[nH]c(=O)c(=O)[nH]c2cc1S(=O)(=O)N(C)C1CCCCC1
1.7	-0.07	O=C1NCCN1C(=O)N(c1ccccc1)c1ccccc1
1.6	-2	COc1ccccc1NC(=O)CSc1nnc(-c2ccco2)o1
1.7	0.65	O=C(O)C(Cc1cn[nH]n1)=NO
0.67	0.23	CCCOc1ccc(NC(=O)C2CC(=O)N(C(C)C)C2)cc1 (stereo not given)
0.48	1.4	CCOc1ccc(N(CC(=O)NCc2ccccc2)S(C)(=O)=O)cc1
1.9	-1.2	COc1ccc(NC(=S)N/N=C/c2ccc(F)c(F)c2)cc1
0.73	2.7	O=C(c1ccncc1)N1CCN(S(=O)(=O)c2cccc([N+](=O)[O-])c2)CC1
1.1	-0.07	CCN(CC)C(=O)N(CC)Cc1ccccc1
0.05	1.1	CC(=O)N1c2ccc(S(=O)(=O)NCCC(=O)N3CCCC(C)C3)cc2CC1C (stereo not given)

17 successive records out of the list so far:
KCNQ2 pot	KCNQ2 pot baseline	compound
0.39	0.48	O=C(NC1CCCC1)C(=O)c1c[nH]c2ccccc12
0.31	-1.1	COc1ccc2nc(N)sc2c1
1.3	0.01	COCCNc1oc(/C=C/c2ccccc2OC)nc1S(=O)(=O)c1ccccc1
0.92	0.03	CC(C)CN1C(=O)NC2(CCCc3ccccc32)C1=O (stereo not given)
1.6	1.4	CCOc1cc2nc3c4ccccc4n(C)c3nc2cc1OCC
0.95	-1.6	CCNC(=S)Nc1ccc(Oc2ccccc2)cc1
0.4	2	CCCN1CCC(NC(=O)c2cccc(Oc3ccccc3)c2)CC1
0.98	0.4	O=C1C=CC(=O)N1c1ccc(N2CCCCC2)cc1
0.3	3.1	COc1ccc(-c2nn(-c3ccccc3C)cc2CNCc2cccnc2)cc1F
0.39	-0.92	Cc1cc2[nH]c(=O)c(=O)[nH]c2cc1S(=O)(=O)N(C)C1CCCCC1
1.7	-0.07	O=C1NCCN1C(=O)N(c1ccccc1)c1ccccc1
1.6	-2	COc1ccccc1NC(=O)CSc1nnc(-c2ccco2)o1
1.7	0.65	O=C(O)C(Cc1cn[nH]n1)=NO
0.67	0.23	CCCOc1ccc(NC(=O)C2CC(=O)N(C(C)C)C2)cc1 (stereo not given)
0.48	1.4	CCOc1ccc(N(CC(=O)NCc2ccccc2)S(C)(=O)=O)cc1
1.9	-1.2	COc1ccc(NC(=S)N/N=C/c2ccc(F)c(F)c2)cc1
0.73	2.7	O=C(c1ccncc1)N1CCN(S(=O)(=O)c2cccc([N+](=O)[O-])c2)CC1

Remaining list, next part:
KCNQ2 pot	KCNQ2 pot baseline	compound
1.1	-0.48	CNCCCNC(=O)c1ccc(/C=N/O)nc1
0.73	-0.93	O=C(Cn1cnc2c(nnn2Cc2ccccc2)c1=O)Nc1ccc2c(c1)OCCO2
0.06	0.92	CCOC(=O)C1=NN(c2ccc(Cl)cc2)C(=O)C1
6.1*	-0.56*	O=C(NNC(=O)c1ccccc1OCc1ccc(F)cc1)c1ccncc1
0.02	-0.86	O=c1cc(C(F)(F)F)nc(-c2ccccc2OC(F)(F)F)[nH]1
0.29	0.11	Cc1cc(=O)oc2cc(NC(=S)NCc3ccccn3)ccc12
7*	1.8*	Cc1cc(Oc2ccc(C)c(Cl)c2)nc(SCC(=O)c2ccccc2)n1
0.1	-2.4	Cc1cc(N=Cc2c(O)ccc3ccccc23)no1
0.77	0.27	O=C(NCCCN1CCOCC1)C(=O)NCc1ccccc1
0.8	0.02	O=C(CSc1nnnn1C1CCCCC1)NCc1cccc(C(=O)O)c1
0.23	0.03	COCCN(C(=O)COC(=O)C1CCC(C(C)(C)C)CC1)c1c(N)n(Cc2ccccc2)c(=O)[nH]c1=O (stereo not given)
1.4	0.18	CCC(C)NC(=O)C(Cc1ccccc1)NS(=O)(=O)c1cccc2nsnc12 (stereo not given)
1	-0.76	CCOCCc1nnc(N)s1
0.07	0.53	O=C1Nc2ccccc2O/C1=C\c1ccccc1Br
0.22	-0.32	COc1cccc(NC(=O)N2CCCC2C(=O)NCc2ccco2)c1 (stereo not given)
1.6	-1.4	COc1ccc(NC(=O)Nc2ccccc2C(=O)N2CCCC2)cc1
0.49	-1.8	CC(=O)N1c2ccc(S(=O)(=O)NCC3CCC(C(=O)Nc4cccc(C)n4)CC3)cc2CC1C (stereo not given)
0.08	0.17	CC(=O)c1cccc(NS(=O)(=O)c2ccc(-c3cc(C)no3)s2)c1
1.8	0.05	CCOc1ccc(-n2cccc2C=O)cc1
0.04	1.8	NC(=O)CN1CCN(c2cccc(Cl)c2)CC1
0.58	0.28	COc1ccc(S(=O)(=O)N2CCOC2CNC(=O)C(=O)NCc2ccncc2)cc1C (stereo not given)
3.6	-1.1	CC(C)Cc1csc(NC(=O)c2ccc(F)cc2)c1C(=O)O
0.03	2	Cc1cccc(S(=O)(=O)c2c(N)n(/N=C/c3ccccc3)c3nc4ccccc4nc23)c1
0.11	0.11	CCOc1ccc(NC(=O)Cc2ccc(S(=O)(=O)N3CCOCC3)s2)cc1OCC
2.8	-2.5	Cc1cc(S(=O)(=O)NCc2ccccn2)c(Cl)cc1Cl
7.7*	-0.18*	C/C(=N\NC(=O)c1cccc(Br)c1)c1ccccn1
0.56	-1.3	CCN1CCCC1CNC(=O)CN(C)S(=O)(=O)c1ccc(Cl)cc1 (stereo not given)
1.3	-1.3	CC(=O)N1CCN(c2ccc(NC(=O)c3ccc4ccccc4c3)cc2)CC1
0.48	0.62	CC1CCCCN1C(=O)Cn1cc(C#N)c2ccccc21 (stereo not given)
0.61	0.09	Cc1ccc(C(=O)NNC(=S)Nc2cccc3ccccc23)s1
0.78	1.3	CCC(=O)Nc1cccc(NC(=S)NC(=O)c2ccccc2C)c1
0.09	1	Cc1nonc1-c1csc(N)n1
1.6	-2.7	CN(C)C(=O)CSc1nnc(-c2cccs2)n1-c1ccccc1
0.49	0.87	COc1nc(OC)nc(N(C)CCO)n1
0.67	0.88	CCOc1ccc(OCCC(=O)OCC(=O)N2CCN(S(=O)(=O)c3ccc(C)cc3)CC2)cc1
0.18	-0.15	COc1ccc(CNC/C=C/c2ccccc2)cc1
2.2	0.24	COc1ccc(C2c3sc(=O)[nH]c3SCC2C(N)=O)cc1 (stereo not given)
1.1	1.4	Cc1ccc(S(=O)(=O)NCCNS(=O)(=O)c2ccc(C)cc2)cc1
0.64	2.4	COc1ccc2c(c1OC)C(=O)OC2CC(=O)c1ccc(N(C)C)cc1 (stereo not given)
1.7	-1.6	COc1ccc(OCc2cc(C(=O)NCCN3CCCC(O)C3)no2)c(Cl)c1 (stereo not given)
0.71	-0.02	Cc1ccccc1C1NC(=S)NC2=C1C(=O)CC(C)(C)C2 (stereo not given)
0.68	0.97	CC(C)CNC(=O)c1cccc(NC(=O)C(C)C)c1
0.02	-0.11	CSc1nc2ccc(NC(=O)c3c(-c4ccccc4)noc3C)cc2s1
0.1	0.38	CCc1cc(C(=O)NNC(=S)NCc2ccccc2)cs1
0.88	0.16	Cc1nc2nc(SCC(=O)C(C)(C)C)[nH]c2cc1Br
0.32	0.63	COCCNC(=O)c1ccc(S(=O)(=O)c2ccc(Cl)cc2)c(NC(C)=O)c1
0.29	1.2	CC(=O)c1ccc(S(=O)(=O)N2CCN(C(=O)/C=C/c3ccc4ccccc4n3)CC2)cc1
0.03	-0.57	C/C=C/c1ccc(OCCOc2cc(C=O)ccc2OC)c(OC)c1
0.89	-1.8	Cc1cccc(C(=O)O/N=C(\N)c2cccc([N+](=O)[O-])c2)c1
1.2	-1.3	O=C(O)/C=C/c1ccc(S(=O)(=O)NCc2ccco2)cc1
0.06	0.01	Cc1ccc(C)c(N2CCN(S(=O)(=O)c3ccc4c(c3)oc(=O)n4C)CC2)c1
0.37	-1.2	OC1(c2cn(Cc3ccccc3)nn2)CCCCC1
1.3	2.2	C=CCNC(=O)c1ccc(-n2cccc2)cc1
0.03	1	N/C(=N\OC(=O)CCC1CCCCC1)c1ccc([N+](=O)[O-])cc1
0.27	-1	COc1ccc2[nH]c(C(=O)NCc3ccccc3)c(C)c2c1
0.02	-0.52	O=C(CCSc1ccccc1)Nc1nnc(-c2cccs2)o1
0.42	-0.01	CC1=Nc2cc(C(=O)O)ccc2Sc2c(C)ccc(C)c21
0.83	-1.1	CCOC(=O)c1nnn(CC(=O)Nc2cccc(F)c2)c1C(=O)OCC
0.13	1	CCN1CCn2c1nc(N1CCCCC1)nc2=O
1.1	1.1	O=C(COc1ccc(NC(=O)c2ccccc2)cc1)c1ccccc1

Continued:
KCNQ2 pot	KCNQ2 pot baseline	compound
0.1	-0.06	Cc1ccc(NC(=O)CN2CCN(C(=O)C3CCCO3)CC2)c(C)c1 (stereo not given)
3.2	0.1	Cc1cc(OCC(=O)Nc2ccncc2)ccc1[N+](=O)[O-]
1.3	-0.04	CCNc1nc(N)nc(-c2cc(Cl)ccc2O)n1
0.45	-1.5	CN1CCCC1=Nc1c2c(nc3ccccc13)N(C)CC2
2.3	0.19	O=C(CCCCCN1C(=O)c2ccccc2C1=O)Nc1cccc(O)c1
0.01	-0.17	Nc1cccnc1Oc1ccccc1F
0.56	0.89	COc1ccccc1CN1CCN(C(CC(C)C)c2nnnn2Cc2cccs2)CC1 (stereo not given)
0.86	0.83	CCc1c(C)c(C#N)c2nc3ccccc3n2c1NCCN(C)C
0.48	0	CSc1ccccc1C(=O)Nc1cccc(N(C)S(C)(=O)=O)c1
0.8	0.48	CCN(CC)CCn1c(=S)[nH]c2cc(C(=O)N3CC=C(c4ccccc4)CC3)ccc2c1=O
0.25	-1.1	CCOc1ccc(Br)cc1CC(=O)O
1.3	-0.39	COc1ccc(-n2nnnc2/C(=C/N(C)C)C(=O)c2ccccc2)cc1
0.29	-1.8	O=C(/C=C/c1ccco1)NC(=S)Nc1ccc(N2CCOCC2)c(Cl)c1
0.01	-1.7	Cc1ccccc1NC(=O)CCCCC(=O)Nc1ccccc1C
0.12	-0.67	CCC(C)(C(=O)NC1CCCCC1)N(CC1CCCO1)C(=O)CNC(=O)c1ccccc1 (stereo not given)
0.23	0.49	c1ccc(-n2cc(CN3CCCC(CN4CCCC4)C3)c(-c3ccc4c(c3)OCO4)n2)cc1 (stereo not given)
1.2	-0.95	Nc1nc(Nc2ccc(Cl)cc2)nc(NCCO)c1[N+](=O)[O-]
0.65	2.5	COc1ccc(C)cc1NC(=O)C(OC(=O)Cn1cnc2c1c(=O)n(C)c(=O)n2C)c1ccccc1 (stereo not given)
0.03	0.09	O=C(CCCCl)NC(=S)Nc1cc(C(F)(F)F)ccc1N1CCOCC1
0.88	-2.1	Cc1ccc(N2C(=O)CC(NNC(=O)c3cccc(S(=O)(=O)N4CCCC4)c3)C2=O)cc1 (stereo not given)
0.14	0.42	COc1cc2c(cc1OC)C(=S)NC1(CCCC1)C2
0.07	0.78	O=C(CSc1nc2ccc(NC(=O)c3ccccc3C(=O)O)cc2s1)Nc1ccc(F)c([N+](=O)[O-])c1
0.1	-2.5	Cc1c(NC(=O)c2c(F)c(F)c(F)c(F)c2F)c(=O)n(-c2ccccc2)n1C
1.3	-0.28	COC(=O)c1cc(S(=O)(=O)N2c3ccccc3CC2C)c[nH]1 (stereo not given)
1.2	-0.01	CSc1nsc2nc(=O)c(/C=C3\C=Nc4ccccc43)c(N)n12
0.5	2.2	CC(=O)Nc1sc(N)nc1-c1ccccc1
1.7	-0.9	CCCCC(=O)Nc1nnc(S(=O)(=O)N(C)Cc2ccco2)s1
0.26	0.03	CCOC(=O)c1nc(NCc2ccccc2F)c2ccccc2n1
0.38	0.74	Cc1c(C(=O)Nc2nc3ccccc3[nH]2)oc2c(Cl)cccc12
1.6	-0.03	O=C(COC(=O)c1cc(Cl)ccc1O)NNC(=O)c1ccc([N+](=O)[O-])cc1
0.52	2.3	Cc1ccc(NC(=O)CC2NCCNC2=O)cc1 (stereo not given)
1.5	-0.81	O=C1CC(c2ccccc2)c2ccccc21 (stereo not given)
0.47	1.4	CCc1ccc2c(c1)c1nc(C)sc1n2CC
0.55	-1.9	CC(C)(C)c1cc2nc3c(c(=O)n2[nH]1)CN(Cc1ccccc1)C3=O
1	0.61	O=C1OC(c2ccc(Br)cc2)=N/C1=C\c1ccco1
1.4	0.26	COc1ccc(NC(=O)c2cc(-c3ccc(C)cc3)on2)cc1OC
0.7	0.81	Cc1ccc(-c2nc3ncccc3o2)cc1N
0.17	-1.6	COc1cc(C(=O)N(C)C2CCCN(Cc3ccccc3F)C2)cc(OC)c1OC (stereo not given)
